Calb FLC = affects C. albicans growth with fluconazole; C. albicans CaCi-2 (fluconazole-resistant clinical isolate) + fluconazole, Alamar Blue growth, 48 h; growth inhibition, % (no concentration beside the values); actives 0.57% (n = 300,000);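 active = most replicates above 75%; inconclusive = exactly half above 75%; inactive = most below 75%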;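 note: all wells also contain fluconazole at 8 µg/ml as a sub-toxic cotreatment; 0% = median of DMSO wells and 100% = median of geldanamycin control wells; wells of about 8 µL received 7.5 nL stock; the first replicate is given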
ALR inh = inhibitors of human sulfhydryl oxidase ALR | P55789 | purified ALR, DTT oxidation, H2O2 HRP-luminol luminescence | inhibition, % (test concentration not listed) | actives 3.8% (n = 290,000) | AID 485317;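 active = mean and each replicate at 75% or more; inconclusive = only one of the two met; inactive = neither met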;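 note: stock transfer was 7.5 nL into about 7.5 µL; 0% = neutral wells and 100% = wells with inactivated enzyme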
Target sequence (P55789 whole entry, looked up): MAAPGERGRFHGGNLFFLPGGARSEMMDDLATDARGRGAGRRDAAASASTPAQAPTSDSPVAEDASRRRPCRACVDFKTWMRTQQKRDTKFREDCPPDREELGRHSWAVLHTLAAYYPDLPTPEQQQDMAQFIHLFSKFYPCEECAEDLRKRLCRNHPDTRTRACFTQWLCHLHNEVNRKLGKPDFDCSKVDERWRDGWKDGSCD
A1 inh = inhibitors of the anti-apoptotic protein A1, read as caspase activation; MEF A1-2A-BIM cells, Caspase-Glo 3/7 luminescence, 3 h; percent of clofoctol response, vehicle zero; caspase activation, % (no concentration beside the values); actives 0.066% (n = 330,000); AID 2462;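 active = over half of replicate activation scores above 10%, or exactly half above 10 with the replicate mean above 10; inconclusive = replicate mean below 10 yet half the replicates above 10; inactive = over half of replicates below 10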;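 note: wells of about 30 µL received 50 nL stock; many hits fall short of the cut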
LANA-H2A inh = blocks KSHV LANA binding to histone H2A/H2B | actives 0.6% (n = 320,000) | Q9QR71 | cell-free LANA-H2A/H2B peptide, fluorescence polarization | inhibition, % (concentration not given with the values) | AID 2629; in the data active = inhibition mostly above about 10%, no sharp cut-off; inactive = mostly below about 6.7%;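 note: stock transfer was 7.5 nL into about 10 µL; 0% = median of vehicle wells and 100% = median of positive control wells; one replicate is shown; the record names a cut of 25% in any replicate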
Beta apoptosis = blocks beta cell apoptosis. INS-1E cytokine-induced death, ATP luminescence, 48 h; percent of positive-control rescue, neutral wells zero. protection from apoptosis, % (no concentration beside the values). actives 0.8% (n = 300,000);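 active = all replicates at 75% or more, or half of them and the mean; inconclusive = half reach 75% but not the mean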;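 note: 0% = cytokine-treated negative control wells and 100% = positive control rescue; higher means more ATP so stronger rescue from cytokine killing; wells of about 40 µL received 100 nL stock; the first replicate is given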
B2AR ag = human beta-2 adrenergic receptor agonism by FAP. P07550. Am2.2-beta2AR cells, FAP receptor internalization, flow cytometry; reference of the scale not given here. response, % (test concentration not listed). actives 0.43% (n = 340,000);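 active = response above a set limit, near 3 SD of response in nonfluorescent compounds, cut at about 42% in these data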;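 note: stock transfer was 100 nL into about 11 µL; a reference agonist was the positive control; negative values mostly stem from fluorescent compounds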
Target sequence (P07550 whole entry, looked up): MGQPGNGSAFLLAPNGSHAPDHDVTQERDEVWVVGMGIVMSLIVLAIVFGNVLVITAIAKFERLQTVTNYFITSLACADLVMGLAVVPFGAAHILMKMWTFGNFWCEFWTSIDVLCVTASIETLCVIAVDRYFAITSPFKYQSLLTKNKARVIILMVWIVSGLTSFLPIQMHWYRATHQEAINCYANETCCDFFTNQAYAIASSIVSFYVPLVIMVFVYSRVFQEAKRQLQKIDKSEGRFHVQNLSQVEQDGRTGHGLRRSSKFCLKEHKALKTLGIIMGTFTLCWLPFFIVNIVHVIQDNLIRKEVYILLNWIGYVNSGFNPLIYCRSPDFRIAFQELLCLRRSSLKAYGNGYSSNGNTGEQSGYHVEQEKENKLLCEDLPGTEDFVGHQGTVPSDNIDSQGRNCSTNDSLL
rRNA inh HTS = inhibitors of bacterial rRNA selective over humanized ribosomes | AID 720706 | GFP signal change (wild-type ribosome), % (test concentration not listed) | E. coli WT GFP vs humanized-ribosome RFP mutants, fluorescence, 24 h; hits give low values; DMSO median 0, no signal -100 | actives 1.6% (n = 350,000);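 active = significant combined selectivity score with lowered wild-type GFP, culture density cut under 30%, mutant RFP and density less affected; inactive = any of these conditions unmet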; note: one replicate is shown; some compounds called inactive have numbers as strong as hits
T cruzi repl = T. cruzi replication inhibition; T. cruzi beta-gal in NIH3T3, luminescence, 90 h; inhibition, % (concentration not given with the values); actives 1.4% (n = 300,000);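 active = mean inhibition across valid replicates above about 55%, limit read from the data; inconclusive = mean below that limit but half or more replicates reach it; inactive = mean below it, under half of replicates reach it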;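 note: signal also drops with host cell toxicity which is not excluded here; 0% = plate median of DMSO wells and 100% = zero luminescence signal; higher percent means less beta-gal luminescence so fewer parasites; stock transfer was 50 nL into about 50 µL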
rRNA inh HTS OD600 = also measured in rRNA inh HTS; calls as there; OD600 change, %; measured here: OD600 growth;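 optical density of the mix in the first replicate; 0 = DMSO median and -100 = no signal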
rRNA inh HTS RFP = further read-out of rRNA inh HTS, marked with its call; RFP signal change, %; measured here: RFP humanized mutant strains;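 first replicate; 0 = DMSO median and -100 = no signal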
Active calls of the source: *; ? = inconclusive; . = no result given. This is a subset (hit frequency here may not be typical).

Second line of a record – Calb FLC | ALR inh | A1 inh | LANA-H2A inh | Beta apoptosis | B2AR ag | rRNA inh HTS | rRNA inh HTS OD600 | rRNA inh HTS RFP | T cruzi repl
> COc1ccc(COC(=O)C2=C(C)NC(=O)NC2c2ccc(O)cc2)cc1 (configuration not stated)
→ 20 | 7 | 0.6 | -0.1 | -1 | -2 | -8 | 4 | -3.1 | -22
> CC(=O)c1cc(-c2ccccc2)n(CCC(=O)NC2CCCCCC2)c1C
→ 3 | . | -1.7 | 2.5 | -2 | -6 | . | . | . | -5
> O=S(=O)(NC1CCCCC1N1CCOCC1)c1ccc(Cl)cc1 (configuration not stated)
→ 30 | 0 | 0.2 | 1.3 | 2 | 0 | -5 | -7 | 3.1 | -8
> Cc1nc([N+](=O)[O-])nn1C12CC3CC(CC(Cl)(C3)C1)C2
→ -11 | -4 | 1.2 | -3.6 | -5 | -2 | . | . | . | 52
> CCc1ccccc1NC(=O)C1(S(=O)(=O)c2ccc(C)cc2)CC1
→ -3 | . | -0.1 | 4.6 | -7 | -3 | 0 | -1 | -0.7 | 8
> O=S1(=O)CCOC[C@H](c2ccccc2)N1Cc1ccccc1F
→ -9 | -3 | 0.3 | -2.6 | 4 | -8 | -35 | -55 | -25 | 0
> Cc1nn(-c2ccccc2)c(C)c1NC(=O)COC(=O)CCc1ccccc1
→ ? | . | -0.8 | -7.1 | -1 | 5 | 20 | 15 | 2.1 | 7
> COc1ccccc1Oc1c(C)oc2c(CN3CCN(CCO)CC3)c(O)ccc2c1=O
→ -10 | -21 | 0.0 | -11 | -1 | . | . | . | . | -2
> Cc1ccc(NC(=O)c2ccc(Cl)c(N3C(=O)CCC3=O)c2)cc1
→ 0 | -2 | 0.2 | 5.2 | . | 7 | 2 | 9 | 0.0 | -4
> Cc1nc([N+](=O)[O-])c(C(=O)OCc2ccccc2F)n1C
→ -21 | -11 | 1.8 | 1.7 | -11 | -2 | -10 | -6 | -5.0 | 4
> COC(=O)Nc1ccc(OC)c(OC)c1
→ 17 | -34 | -0.2 | -12 | . | -2 | . | . | . | -13
> CCC(C)(C)n1nnnc1C(c1ccccc1F)N1CCC(C(N)=O)CC1 (configuration not stated)
→ 7 | . | -0.9 | -1.1 | -3 | -3 | . | . | . | -6
> CCC(NC(=O)OCc1ccccc1)C(=O)Oc1ccc2ccc(=O)oc2c1 (configuration not stated)
→ -8 | 18 | -0.2 | 0.4 | -3 | -1 | 5 | -3 | -0.3 | -12
> COC(=O)c1cc(=O)n(Cc2ccco2)c(=Nc2ccc(F)c(Cl)c2)s1
→ 0 | 1 | 0.7 | 3.0 | 14 | 33 | 1 | -7 | 3.9 | 50
> Cc1ccccc1-n1c(-c2ccncc2)n[nH]c1=S
→ 1 | 52 | -0.9 | -2.0 | 0 | -3 | . | . | . | -1
> CCOC(=O)C1CCN(Cc2cc(C(C)(C)C)c(O)c(C(C)(C)C)c2)CC1
→ 1 | . | -0.8 | -4.7 | -4 | 4 | -9 | 2 | 1.4 | 35
> Fc1ccc(Nc2nc(NCc3ccco3)c3ccccc3n2)cc1
→ -2 | -6 | -1.3 | -0.3 | 44 | 33 | -41* | -24* | 0.9* | 57*
> CC1CCN(C(=O)C2CCN(S(=O)(=O)N3CCC4(CC3)OCCO4)CC2)CC1
→ -3 | 1 | 0.1 | -0.6 | 0 | 0 | 4 | 5 | -0.5 | 0
> O=C1C=CN2CCCC2CC1 (configuration not stated)
→ . | -9 | 0.2 | -3.1 | 10 | 2 | 8 | 4 | 1.1 | .
> Cc1ccc(C)c(N2CCN(C(=O)CCNS(=O)(=O)c3ccc4c(c3)oc(=O)n4C)CC2)c1
→ -1 | -5 | 0.1 | -1.2 | 2 | 4 | -6 | -18 | 0.8 | -1
> O=C(Nc1ccc2c(c1)CCC2)c1cnccn1
→ -16 | -1 | -0.4 | 0.0 | 3 | -1 | 2 | 6 | -1.3 | -9
> O=C(Nn1cnnc1)c1ccncc1
→ -8 | -4 | -0.1 | 1.5 | -2 | 4 | . | . | . | -9
> CCc1ccc(OCC(=O)Nc2ccncc2)c(Br)c1
→ -2 | -16 | -1.6 | 0.6 | -3 | -8 | -26 | -36 | 0.2 | -38
> O=C(c1ccc2ccccc2c1)N1CCc2ccccc21
→ -10 | -2 | -1.3 | 0.6 | 6 | 8 | 3 | 0 | -2.8 | 0
> COc1ccc(C2/C=C\CN(CC(C)(C)C)CC(=O)N2Cc2ccc(F)cc2)cc1 (configuration not stated)
→ -6 | . | 0.5 | 2.9 | -9 | -1 | 6 | 3 | 3.8 | 0
> O=C(N1CCOCC1)N1CCC(NC(=O)C23CC4CC(CC(C4)C2)C3)CC1
→ 0 | -4 | -1.0 | 0.7 | -14 | -2 | . | . | . | -15
> CC(C)c1ccc(NC(=O)COC(=O)C2CC3C=CC2C3)cc1 (configuration not stated)
→ . | . | -1.9 | 3.0 | -5 | 7 | -13 | -17 | -3.2 | .
> O=C(NNc1cc(Cl)cc(Cl)c1)c1cccs1
→ -33 | 2 | 0.7 | 4.5 | 0 | 4 | -18 | -4 | -2.5 | 31
> c1ccc(N2CCN(c3cnccn3)CC2)nc1
→ 12 | -1 | -1.2 | 1.7 | . | -10 | . | . | . | 1
> C=CCn1c(SCCC#N)nnc1-c1ccncc1
→ 0 | -25 | -0.3 | -3.2 | -6 | 4 | . | . | . | -10

Whole records, quoted from the list. Order of screens: Calb FLC | ALR inh | A1 inh | LANA-H2A inh | Beta apoptosis | B2AR ag | rRNA inh HTS | rRNA inh HTS OD600 | rRNA inh HTS RFP | T cruzi repl
`CC(C)c1ccc(NC(=O)COC(=O)C2CC3C=CC2C3)cc1` (configuration not stated) is listed as . | . | -1.9 | 3.0 | -5 | 7 | -13 | -17 | -3.2 | .
`CCc1ccc(OCC(=O)Nc2ccncc2)c(Br)c1` is listed as -2 | -16 | -1.6 | 0.6 | -3 | -8 | -26 | -36 | 0.2 | -38
`COc1ccccc1Oc1c(C)oc2c(CN3CCN(CCO)CC3)c(O)ccc2c1=O` is listed as -10 | -21 | 0.0 | -11 | -1 | . | . | . | . | -2

4 entries from above, arranged by their value in rRNA inh HTS RFP, largest number first:
Molecule	rRNA inh HTS RFP
COc1ccc(C2/C=C\CN(CC(C)(C)C)CC(=O)N2Cc2ccc(F)cc2)cc1 (configuration not stated)	3.8
O=S(=O)(NC1CCCCC1N1CCOCC1)c1ccc(Cl)cc1 (configuration not stated)	3.1
Cc1ccc(NC(=O)c2ccc(Cl)c(N3C(=O)CCC3=O)c2)cc1	0.0
O=C(NNc1cc(Cl)cc(Cl)c1)c1cccs1	-2.5

(further entries)
Second line of a record – Calb FLC | ALR inh | A1 inh | LANA-H2A inh | Beta apoptosis | B2AR ag | rRNA inh HTS | rRNA inh HTS OD600 | rRNA inh HTS RFP | T cruzi repl
> COc1ccc(C2SCC(=O)N2c2c(C)n(C)n(-c3ccccc3)c2=O)c(OC)c1 (configuration not stated)
→ -4 | -6 | 1.3 | -2.6 | -5 | -7 | . | . | . | -1
> Cc1ccc2[nH]c(-c3ccccc3)c(CN3CCN(C)CC3)c(=O)c2c1
→ 10 | 0 | 0.8 | 2.3 | 6 | 9 | . | . | . | -6
> Nc1nonc1-n1nnc(C(=O)N/N=C/c2cccc(Cl)c2)c1CN1CCCC1
→ 2 | -3 | 0.6 | -1.6 | 4 | -8 | 1 | 10 | 2.2 | 5
> Cc1c(NC(=S)NCc2ccc(F)cc2)cccc1[N+](=O)[O-]
→ -2 | 1 | 0.2 | 1.8 | -9 | 1 | -21 | -31 | -22 | -1
> Cc1ccc2sc(C)[n+](CCCS(=O)(=O)[O-])c2c1
→ 0 | -6 | 0.4 | -5.5 | -5 | -4 | 18 | 9 | 1.8 | -4
> Nc1cc(=O)[nH]c(SCC(=O)NCC2CCCO2)n1 (configuration not stated)
→ -12 | . | 0.4 | -1.9 | -5 | -4 | . | . | . | -5
> CCN(c1ccccc1)S(=O)(=O)c1ccc(Oc2ccc([N+](=O)[O-])cc2)nc1
→ 0 | 1 | -0.3 | 0.5 | 4 | -3 | -10 | -7 | -0.5 | 11
> CCN1CCN(CCCNC(=O)CCC(=O)N2CCOc3ccc(Cl)cc32)CC1
→ 5 | 21 | -0.2 | -1.6 | 7 | 10 | 14 | 18 | 1.0 | -12
> Cc1cc(Cl)ccc1NC(=O)CSc1n[nH]c(N)n1
→ . | -14 | -0.5 | 4.6 | -11 | 0 | 10 | -4 | -0.5 | .
> COc1ccc(CC2(CO)COc3ccccc3C2=O)cc1 (configuration not stated)
→ -1 | -1 | -0.1 | 2.2 | 0 | -7 | -28* | -9.1* | 1.2* | -4
> CC(=O)Nc1ccc(S(=O)(=O)N2CCN(c3nc(C)cc(C)n3)CC2)cc1
→ -28 | -31 | 1.7 | -1.7 | 2 | -7 | -52 | -74 | -12 | 14
> Cc1cccc(C(=O)N2CCCC(Nc3ccc(C(C)C)cc3)C2)n1 (configuration not stated)
→ -7 | 98* | . | . | . | -1 | 2 | 3 | -1.2 | -1
> Cc1cccc(/C(N)=N/OC(=O)c2ccco2)c1
→ -8 | 25 | 0.5 | 4.8 | 5 | -5 | 6 | 6 | -4.5 | -17
> S=C(NCc1ccccn1)Nc1ccc(Cl)cc1
→ -1 | -13 | 0.1 | 1.0 | -5 | -4 | . | . | . | -18
> CN1CCN(C(=O)c2cc(COc3c(F)cccc3F)on2)CC1c1ccccc1 (configuration not stated)
→ 17 | -1 | 0.2 | 0.1 | -3 | 2 | -47 | -70 | -16 | 28
